Mtb hypoxia inh: reduces hypoxia-regulated biosensor signal in M. tuberculosis; M. tuberculosis hypoxia-regulated fluorescent reporter, fluorescence; fluorescence inhibition, % (no concentration beside the values); 300,000 tested, 0.1% active; AID 1159583;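 active means 35 to 45% if threefold the growth effect, above 45% if 1.5-fold the growth effect; inactive means the rest, general growth blockers included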;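 further: wells of about 50 µL received 100 nL stock; 0% = vehicle wells and 100% = reference inhibitor wells; whole bacteria with a GFP reporter of the hypoxia response; strong numbers were not always called active; many hits fall short of the cut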
Bead autofluor: counter-screen for toxin protease inhibitors: compound fluorescence. compound autofluorescence counterscreen, microsphere flow cytometry; active compounds read high. fluorescence intensity (no concentration beside the values). 360,000 tested, 3.1% active. AID 624483;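 active means at least 3 SD above the mean of all compounds, about 16000 in these data; inconclusive means too few beads counted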;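 further: 100 nL of 1 mM stock went into each well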
Sa ugtP lethal: growth inhibition of S. aureus ugtP deletion strain. S. aureus RN4220 ugtP deletion, OD600 growth, 16 h; some inactives read as strong as hits. growth inhibition, % (no concentration beside the values). 330,000 tested, 0.54% active. AID 1259309;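 active means z-score under -3 and OD600 up to 0.15 on both plates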;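 further: plate controls were untreated wells for no effect and antibiotic for full effect; wells of about 80 µL received 100 nL stock; the first replicate is given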
Sa RN4220 lethal: kills Staphylococcus aureus RN4220; 330,000 tested, 0.33% active; inhibition, % (concentration not given with the values); S. aureus RN4220 growth, OD600, 16 h;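 active means z-score of -3 or lower and OD600 up to 0.18 on both plates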;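 further: plate controls were untreated cells for no effect and reference antibiotic for full effect; stock transfer was 100 nL into about 80 µL; one replicate is shown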
PrP 5UTR inh: inhibition of PrP 5' UTR reporter expression | cell-based PrP 5' UTR mRNA reporter, plate reader | inhibition, % (no concentration beside the values) | 340,000 tested, 0.35% active;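 active means every replicate at 50% or more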;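 further: 0 = median of the neutral control wells; tested in H4 reporter cells; numbers are from one replicate; inactives centre near -14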
BJeLR viability: BJeLR cell viability loss. BJeLR (HRASV12) viability, CellTiter-Glo ATP luminescence, 48 h; reference of the scale not given here. inhibition, % (no concentration beside the values). 300,000 tested, 0.17% active. AID 1554;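 active means replicate mean above 50%; inconclusive means above 50% but judged a plate artefact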;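 further: 50 nL library stock added to about 25 µL; numbers are from one replicate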
Mtb hypoxia inh growth: also measured in Mtb hypoxia inh; calls as there; growth inhibition, %; measured here: M. tuberculosis growth (absorbance);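 0% = vehicle and 100% = reference antibiotic; read after six days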
The depositor's hits bear a star; u = inconclusive; x = not tested or not shown.

The opening 3 records, ahead of the listing:
SMILES | Mtb hypoxia inh | Mtb hypoxia inh growth | Bead autofluor | Sa ugtP lethal | Sa RN4220 lethal | PrP 5UTR inh | BJeLR viability
O=C(NC1CCC(c2ccccc2)CC1)c1cccnc1 (stereo not drawn) | -9 | -8 | 3990 | -10 | -2.4 | -17 | 19
O=C(NN=Cc1c[nH]c2ccccc12)c1[nH]c2ccc(Br)cc2c1-c1ccccc1 | 4 | -6 | x | 36 | 86* | x | x
c1ccc(NC2=NCCCCS2)cc1 | 8 | 11 | 4350 | 4 | 3.2 | -11 | -4

The listing (from the top)
SMILES | Mtb hypoxia inh | Mtb hypoxia inh growth | Bead autofluor | Sa ugtP lethal | Sa RN4220 lethal | PrP 5UTR inh | BJeLR viability
O=C(NC1CCC(c2ccccc2)CC1)c1cccnc1 (stereo not drawn) | -9 | -8 | 3990 | -10 | -2.4 | -17 | 19
O=C(NN=Cc1c[nH]c2ccccc12)c1[nH]c2ccc(Br)cc2c1-c1ccccc1 | 4 | -6 | x | 36 | 86* | x | x
c1ccc(NC2=NCCCCS2)cc1 | 8 | 11 | 4350 | 4 | 3.2 | -11 | -4
CCCCn1c(-c2ccccc2)nc2c(=O)n(C)c(=O)[nH]c21 | 7 | 5 | 2350 | -3 | 2.2 | 78* | 8
CCN(CC)CC(=O)Nc1ccc(C)cc1C(=O)c1ccccc1 | 12 | -2 | x | 6 | 2.7 | -14 | -3
NC(=O)c1ccc(SCC(=O)OCC(=O)N2CCCCC2)c([N+](=O)[O-])c1 | -5 | -11 | 4940 | 2 | 2.9 | -3 | -2
COC(=O)c1c(C)[nH]c(C(=O)COC(=O)c2c(C)noc2C)c1C | 1 | 0 | 3972 | 1 | 5.4 | -21 | x
COc1ccc(-c2noc(N3CCCC(C(=O)Nc4ccccc4F)C3)n2)cc1 (stereo not drawn) | -1 | 3 | 6267 | -6 | 3.2 | -12 | -9
CC(=O)c1ccc(OC(=O)CCc2ccccc2)cc1 | -3 | 4 | 3244 | -1 | 3.4 | -10 | -2
Cn1ccnc1Sc1ccc(C(N)=O)cc1[N+](=O)[O-] | 3 | 2 | 3874 | 5 | 6.5 | -16 | 2
COc1ccccc1C(=O)N/C(=C/c1ccc(Br)cc1)C(=O)NCC(=O)O | -3 | -4 | 9200 | 4 | 4.3 | -9 | -19
COc1ccc(Oc2c(Cl)cnn(-c3ccc(Cl)c(Cl)c3)c2=O)cc1 | x | x | 2190 | 14 | -4.6 | -21 | 7
CCN(CC)S(=O)(=O)c1ccc(Cl)c(NC(=O)CSc2cccc[n+]2[O-])c1 | 11 | 0 | 4563 | 3 | 1.8 | x | -2
COc1ccc(CNC(=S)NN=Cc2ccc(OC)c(OC)c2)cc1 | 5 | 7 | x | 11 | 21 | x | x
O=C(COC(=O)c1ccc2ncsc2c1)Nc1cc([N+](=O)[O-])ccc1Cl | 0 | -5 | 2943 | -1 | 0.8 | -11 | x
O=C(Cc1ccccc1)N1CCN(CC=Cc2ccccc2)CC1 | -3 | 11 | x | -7 | -3.0 | x | x
Cc1cccc(NC(=O)CCNC(=O)c2ccco2)c1C | -3 | 2 | 4302 | -6 | -1.7 | -2 | 0
CSCc1ccc(C(=O)NC(C)c2cnn(-c3ccccn3)c2C)o1 (stereo not drawn) | 8 | 3 | 5117 | 10 | 0.1 | -17 | 7
CC(C)c1nnc(NC(=O)C2CCN(C(=O)Nc3ccc(Cl)cc3)CC2)s1 | 5 | 5 | 4794 | 11 | 0.5 | -8 | 1
COc1ccccc1NC(=O)C1=C(C)Nc2nc(CCCO)nn2C1c1cccnc1 (stereo not drawn) | x | x | 4237 | -4 | -1.6 | -19 | 4
Cc1cc(C(=O)NNC(=O)c2ccc(S(=O)(=O)N(C)C)cc2)c(C)o1 | 5 | 7 | 2538 | -2 | 4.0 | -7 | 6
COc1ccc(NC(=O)CN(C)C(=O)c2ccc(N3CCCCC3)c([N+](=O)[O-])c2)cc1 | 3 | 0 | u | 6 | -0.6 | 1 | -1
Cc1ccc(Nc2c([N+](=O)[O-])c(=O)n(C)c3ccccc23)cc1 | 5 | 5 | 2482 | -1 | 5.7 | -14 | -6
CCO/C(C)=C1/SC(=S)NC1=O | 2 | -1 | 6037 | 4 | 2.4 | -12 | -6
Cc1cc(C)n2nc(CCCO)nc2n1 | -11 | 2 | 3805 | 1 | 0.1 | -25 | 15
Cc1cc(NC(=O)C(C)SCC(=O)N(Cc2ccccc2)c2ccccc2)no1 (stereo not drawn) | 0 | -1 | 5352 | -4 | 0.2 | -6 | 17
C[N+](C)(C)CCOc1ccc([N+](=O)[O-])cc1 | 4 | 2 | 4144 | 2 | 4.0 | -8 | -7
CCCC1CC(CCc2ccccc2)OS(=O)(=O)N1 (stereo not drawn) | 6 | 1 | 4502 | -1 | 7.5 | -14 | -9
Cc1ccc(NC(=O)c2ccc3c(c2)N(CC(=O)N2CCCCC2)C(=O)C(C)(C)O3)cc1 | 7 | 7 | 23135* | -2 | 2.3 | -17 | 5
Cc1cc2nc3n(c2cc1C)CC1CC(C(=O)NCc2ccco2)N(C)C31 (stereo not drawn) | -2 | 1 | 3759 | -1 | 3.4 | -22 | -4
NC(=O)c1c(NC(=O)c2cccnc2)sc2c1CCCC2 | 12 | -6 | 3571 | 1 | 7.6 | -31 | -3
COc1cccc(NC(=O)COc2c(F)c(F)c(C(F)(F)F)c(F)c2F)c1 | 4 | 2 | 2605 | -8 | -4.8 | -18 | 5
COc1ccc(CNC(=O)CN(CC2CCCO2)C(=O)CNS(=O)(=O)c2ccc(F)cc2)cc1 (stereo not drawn) | x | x | 5905 | 17 | 11 | -25 | 3
Cc1cc(C)c(-n2nnnc2SCC(=O)c2cc3ccccc3o2)c(C)c1 | 9 | 2 | 4420 | 16 | 2.8 | -9 | -3
CCc1ccc(NC(=S)NCc2ccccc2)cc1 | 13 | 2 | 4410 | 6 | 9.4 | -27 | 3
Cc1ccc(S(=O)(=O)NC2CC(C)(C)NC(C)(C)C2)cc1 | 14 | 13 | 3236 | 4 | 4.9 | -20 | -4
Cc1cc(N/N=C/c2ccncc2)c([N+](=O)[O-])cc1[N+](=O)[O-] | x | x | 3394 | x | x | 5 | 1
Fc1ccc(-c2csc(N3CCOCC3)n2)cc1 | 1 | -4 | 4384 | -12 | -0.1 | -15 | -16
CC(=O)c1csc(COc2ccc(Cl)cc2)n1 | 1 | -4 | 5009 | 6 | 5.2 | -28 | -1
O=C(Cn1nnc(-c2ccc(CN3CCOCC3)cc2)n1)Nc1nc(-c2ccccc2)cs1 | -3 | 7 | 21308* | -16 | -4.3 | -19 | -3
CCN(CC)c1ccc(C(=O)OCC(=O)Nc2cc(C)on2)cc1 | 4 | -2 | 7016 | 0 | -0.1 | -15 | x
Nc1nnnn1CC(=O)NN=Cc1ccccn1 | 0 | -5 | x | 1 | 3.1 | x | x
CCN1C(=O)C2C(c3ccc(-c4ccccc4)c(OC)c3)N[C@@](Cc3ccccc3)(C(=O)OC)C2C1=O (stereo partly drawn) | 19 | 10 | x | 3 | 1.6 | x | x
O=C(Cn1cncn1)NN=Cc1ccccc1Cl | 1 | 5 | x | -5 | 17 | x | x
CC1CCN(C(=O)c2ccccc2NC(=O)Cc2ccccc2)CC1 | -19 | -13 | 5994 | 1 | 1.5 | -2 | -6
O=[N+]([O-])c1ccc(S(=O)(=O)Nc2nnc(C(F)(F)F)s2)cc1 | 11 | 2 | 3636 | 4 | 4.8 | -13 | -1
C#CCOC(=O)CCC(=O)NCCc1ccccc1 | x | x | 2459 | 9 | -1.4 | -18 | 1
Clc1ccccc1CN1CCNCC1 | 7 | 18 | 4190 | 8 | 1.1 | -3 | -2
O=C1CC(NS(=O)(=O)c2cccs2)CN1c1cccc(F)c1 (stereo not drawn) | 3 | 2 | 5410 | 10 | 1.2 | -36 | -12
CCn1c(NC(C)=O)c(-c2ccccc2Cl)c(=O)c2ccccc21 | -12 | -2 | 3659 | 4 | 3.4 | -5 | -3
ON1C(c2ccccc2)CC2(O)c3nonc3CCC12 (stereo not drawn) | 4 | -2 | 5986 | 2 | 1.1 | -12 | -10
CCc1ccc(OCCOCC(O)CNC(C)CC)cc1 (stereo not drawn) | 17 | 7 | 2333 | 5 | 3.4 | -13 | -3
COc1cccc(OCCNc2ccc([N+](=O)[O-])cn2)c1 | 8 | 11 | u | -1 | 2.1 | -8 | x
O=c1c2ccccc2ncn1CCOc1ccccc1[N+](=O)[O-] | 19 | 16 | 4051 | 6 | 5.7 | -49 | -1
Cn1c(/C(C#N)=C(\O)CN2CCN(Cc3ccccc3)CC2)nc2ccccc21 | x | x | u | x | x | -6 | -3
CC(=O)C1=C(O)C(=O)N(CCNCCO)C1c1ccccc1 (stereo not drawn) | 7 | 8 | 4687 | 5 | 5.8 | -5 | -2
Cc1cccc(C)c1NC(=O)CSc1nc(COc2ccccc2)nc2ccccc12 | -7 | -32 | 7800 | -9 | 5.2 | -23 | -5
CC1CCN(C(=O)Cn2cc(C(=O)C3CC3)c3ccccc32)CC1 | 13 | -40 | 2974 | 16 | 21 | -24 | 2
COc1ccc(C(=O)N2CCN(c3ccc(F)cc3)CC2)cc1S(=O)(=O)NC1CC1 | 9 | 2 | 7804 | 8 | 5.1 | -31 | x
O=C(COC(=O)/C=C/c1ccccc1)NC1CCCCC1 | 2 | 9 | 5388 | 1 | 1.8 | -7 | x
Further structures:
SMILES | Mtb hypoxia inh | Mtb hypoxia inh growth | Bead autofluor | Sa ugtP lethal | Sa RN4220 lethal | PrP 5UTR inh | BJeLR viability
COc1ccccc1NC(=O)CSc1ccc(-c2ccco2)nn1 | 7 | 7 | 5449 | -2 | 3.1 | -33 | -9
CCS(=O)(=O)Nc1ccc(C(=O)CC2(O)C(=O)Nc3ccccc32)cc1 (stereo not drawn) | 5 | 4 | 7116 | 9 | 6.7 | -2 | -3
COC(=O)c1cccc(NC(=O)N2C[C@H]3C[C@@H](C2)c2cccc(=O)n2C3)c1 | x | x | 5648 | -1 | 2.5 | -20 | 6
Cc1ccc(S(=O)(=O)N2CCN(C(=O)COC(=O)/C=C/c3cccc([N+](=O)[O-])c3)CC2)c(C)c1 | 6 | 1 | 4086 | -2 | 2.4 | -8 | x
CC(=NNc1nc2ccccc2s1)c1cccs1 | 5 | 6 | x | 30 | -7.9 | x | x
O=C(COC(=O)c1n[nH]c(=O)c2ccccc12)c1ccc(Br)cc1 | 6 | 4 | 3911 | -1 | 5.3 | -52 | -5
Cc1ccc(NC(=O)CSc2ccc(Br)cc2)cc1S(=O)(=O)N1CCOCC1 | 3 | 3 | 6968 | 23 | -3.4 | -52 | 4
Fc1ccccc1NC(=S)Nc1cccnc1 | 8 | 3 | 4664 | 6 | 6.7 | -22 | 8
COc1ccc(NC(=O)CSc2nnc(N)s2)cc1S(=O)(=O)N1CCCCC1 | 2 | 7 | 5989 | 0 | 5.2 | -24 | x
Cc1nc(C)c(C(=O)N/N=C/c2c[nH]c3ccccc23)s1 | x | x | 4323 | x | x | -45 | 28
COc1ccc(CNC(=O)c2ccc(Cl)c(NC3=NC4CS(=O)(=O)CC4S3)c2)cc1 (stereo not drawn) | -1 | 8 | 4377 | 2 | 6.3 | -3 | -4
Nc1c(-c2cccs2)cnn1-c1nc(-c2ccc(F)cc2)cs1 | 0 | 1 | 15352 | -3 | 0.2 | -36 | 1
O=C(Nc1cc(Cl)c(O)c(Cl)c1)C1CCCO1 (stereo not drawn) | 11 | 7 | 8899 | -2 | -0.8 | -6 | -10
COCCCNC(=O)c1ccc(Cn2c(=O)c3ccccc3n(CC(=O)NCCc3ccc(OC)c(OC)c3)c2=O)cc1 | -16 | -13 | 3901 | -10 | 1.1 | -20 | 2
CC(=O)c1ccc(NC(=O)COC(=O)CCC(=O)c2cccs2)cc1 | 8 | 2 | 9166 | 1 | 9.5 | -13 | 10

An excerpt of these results, with two lines to a compound.
Below each SMILES – Mtb hypoxia inh, Mtb hypoxia inh growth, Bead autofluor, Sa ugtP lethal, Sa RN4220 lethal, PrP 5UTR inh, BJeLR viability
> Cc1ccc(S(=O)(=O)N2CCN(C(=O)COC(=O)/C=C/c3cccc([N+](=O)[O-])c3)CC2)c(C)c1
 : 6, 1, 4086, -2, 2.4, -8, x
> CC(=NNc1nc2ccccc2s1)c1cccs1
 : 5, 6, x, 30, -7.9, x, x
> O=C(COC(=O)c1n[nH]c(=O)c2ccccc12)c1ccc(Br)cc1
 : 6, 4, 3911, -1, 5.3, -52, -5
> Cc1ccc(NC(=O)CSc2ccc(Br)cc2)cc1S(=O)(=O)N1CCOCC1
 : 3, 3, 6968, 23, -3.4, -52, 4

Compound activity (PubChem BioAssay)
